Cruzain inh Det: blocks cruzain activity in presence of Triton detergent; P25779; purified cruzain, Z-FR-AMC fluorescence, 0.01% Triton; Potency, µM, inactives show max response, negative = inhibition, actives largely listed as inhibitors; hit rate 0.43% among 200,000;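 also: plate controls were neutral wells for no effect and buffer without enzyme for full effect; nearly all actives have a fitted effect of over 40% in size; top concentration of the series not given in the record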
Target sequence (P25779 123-467 limits assumed): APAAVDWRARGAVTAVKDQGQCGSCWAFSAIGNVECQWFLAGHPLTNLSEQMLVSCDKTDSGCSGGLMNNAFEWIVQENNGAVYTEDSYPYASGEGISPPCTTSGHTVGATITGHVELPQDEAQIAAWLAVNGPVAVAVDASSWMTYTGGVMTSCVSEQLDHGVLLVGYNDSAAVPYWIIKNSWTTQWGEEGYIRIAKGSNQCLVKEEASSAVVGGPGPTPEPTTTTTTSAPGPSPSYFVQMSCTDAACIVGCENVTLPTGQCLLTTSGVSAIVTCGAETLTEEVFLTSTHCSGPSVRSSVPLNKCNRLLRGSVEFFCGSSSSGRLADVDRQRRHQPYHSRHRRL
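Detergent-containing run (0.01% Triton X-100) in acetate buffer pH 5.5 with 5 mM DTT: enzyme at 1.5 nM final, 15 min compound preincubation at room temperature, then 2 uM Z-FR-AMC substrate. Activity taken as 60 s fluorescence increase at 360/450 nm.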
Cruzain inh noDet: inhibitors of Trypanosoma cruzi cruzain without detergent; P25779; purified cruzain, Z-FR-AMC fluorescence, no detergent; Potency, µM, inactives show max response, negative = inhibition, most hits filed as inhibitors; hit rate 2.3% among 200,000; AID 1476;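 also: plate controls were enzyme without inhibitor for no effect and buffer without enzyme for full effect; nearly all actives have a fitted effect of over 40% in size; top concentration of the series not given in the record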
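Purified cruzain at 1.5 nM, pre-incubated 15 min with compound at room temperature in 100 mM sodium acetate pH 5.5, 5 mM DTT, 0.00005% Triton X-100. Reaction started with 2 uM Z-FR-AMC; AMC fluorescence increase over 60 s gives rate.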
StopGo reporter: FMDV 2A StopGo reporter, luciferase signal; human cells with a luciferase reporter of 2A StopGo recoding; control for the full effect not named in the record; Potency, µM (doses to about 57.9 µM), inactives show at the highest dose signal change, negative = less light; hit rate 1.2% among 410,000; active = well fitted falling curve with a large enough effect; inconclusive = small, poorly fitted or top-dose-only effect; inactive = no such curve, though single readings can be large or run the other way; tested in HEK293T cells; also: nearly all actives have a fitted effect of over 45% in size; luciferase light after 4 h
* marks the source's active call; other numbers are inactive results; ? = inconclusive; & = joins results of further samples; [ ] = dose if it differs, or a comment. Unless noted, calls follow the shape of the dose curve; as a rule, active = well fitted curve in the direction sought with a large enough effect; inconclusive = small, poorly fitted or top-dose-only effect, or another doubt; inactive = no such curve, though single readings can be large; an effect the other way counts as inactive or inconclusive. Unless noted, % is scaled to controls: 0 for no effect and ±100 for the full control effect; potency is read from the fitted curve at half-maximal effect. Some of the compounds tested. The share of hits here may be higher or lower than overall.

Under each structure – Cruzain inh Det, Cruzain inh noDet, StopGo reporter
- COc1ccccc1-c1nccc(NCc2cccs2)n1
→ 3.4%, ?, -23%
- CN1CCN(c2ncc3nc(-c4ccccc4)c(=O)n(-c4ccccc4)c3n2)CC1
→ 25µM*, ?, -12%
- c1ccc(Nc2ncnc3ccc(-c4ccoc4)cc23)cc1
→ -2.7%, -18%, -27%
- CC(C)[C@H]1c2ccc(F)cc2CC[C@@]1(CCN(C)CCCc1nc2ccccc2[nH]1)OC(=O)C1CC1
→ -0.9%, 4%, 0%
- CN(N=O)C(=O)N[C@H]1C(O)C(O)C(CO)O[C@@H]1O (some centres not stated)
→ 2.4%, -8%, -1%
- O=C(c1cccc(F)c1)N1CCC2(CCCN(c3ncccn3)C2)CC1
→ -0.1%, 10%, -1%
- COc1ccc(CNc2ncncc2-c2ccccc2CN(C)C)c(OC)c1
→ -2.3%, -1%, -9%
- O=C(c1cccc(F)c1)N1CCC2(CCCN(C(c3ccccc3)c3ccccc3)C2)CC1
→ -3.9%, -14%, -26%
- COc1ccc(-c2nc3cnc(OC)nc3n(-c3ccc(OC)cc3)c2=O)cc1
→ -4.3%, 18%, 6%
- O=C(Oc1ccccc1C(=O)O)c1ccccc1O
→ -1.6%, -1%, 0%
- O=C(c1csnn1)N1CCC[C@@]2(CCN(Cc3nccs3)C2)C1
→ -3.6%, 2%, -13%
- COc1ccc(NC(=O)c2ccc(-c3ccc(-c4noc(C)n4)cc3C)cc2)cc1OCCN(C)C
→ -2.6%, 28%, -4%&-10%
- Cc1noc(C)c1C(=O)N1CCC2(CCCN(c3ccncc3)C2)CC1
→ -0.5%, -13%, 7%
- O=c1c(-c2ccc(F)cc2)nc2cncnc2n1Cc1ccc(F)cc1
→ 0.9%, -3%, 0%
- COc1ccc(-n2c(=O)cnc3cnc(Oc4ccccc4)nc32)cc1
→ -4.8%, -2%, -10%
- CS(=O)(=O)N1CCC2(CCN(C(=O)Nc3cccc(F)c3)CC2)CC1
→ -1.8%, -4%, -1%
- O=C(c1cc(C(F)(F)F)cc(C(F)(F)F)c1)N1CCC[C@@]2(CCN(c3ccccc3)C2)C1
→ -1.4%, -9%, -26%
- COc1ccc(-c2nc3cnc(Nc4cccc(OC)c4)nc3n(C[C@H]3CCCO3)c2=O)cc1
→ 3.0%, -16%, -1%
- Clc1ccccc1-c1nc(NC2CCNCC2)c2ccccc2n1
→ 0.2%, -6%, -24%
- c1ccc(-c2cccc(N3CC4(CCNCC4)C3)c2)cc1
→ 1.4%, -19%, -6%
- COc1cccc2c1CCC1CC(=O)CC[C@@]21C (some centres not stated)
→ 2.6%, -3%, 5%
- Cc1cccc(CNc2ncncc2-c2ccccc2C)c1
→ 2.0%, 3%, -15%
- CCNc1ncc2ncc(=O)n(Cc3cccs3)c2n1
→ 1.0%, -12%, -12%
- O=c1nc2ccccc2c2n1C[C@H](CN1CCN(c3ccccc3)CC1)N2
→ -4.4%, -1%, -7%
- CS(=O)(=O)N1CCC2(CC1)CN(c1cccc(-c3ccccc3)c1)C2
→ -3.6%, ?, -8%
- COc1cc(C2c3cc4c(cc3C(O)C3COC(=O)C23)OCO4)cc(OC)c1O (configuration not stated)
→ -1.1%, -9%, 3%
- CC1C(O)CC2C(C(=O)O)=CO[C@@H](O[C@H]3OC(CO)C(O)C(O)C3O)C21 (some centres not stated)
→ -0.6%, 2%, -7%
- COC(=O)CC1C(C)(C)C(O)C2CC3=C4CC(O)OC(c5ccoc5)[C@]4(C)CCC3[C@@]1(C)C2=O (some centres not stated)
→ -2.8%, ?, -6%
- Cc1ccccc1-c1cc(Nc2ccc(F)cc2)ncn1
→ -3.8%, -1%, 19%
- O=C(OC1Cc2c(O)cc(O)cc2OC1c1cc(O)c(O)c(O)c1)c1cc(O)c(O)c(O)c1 (configuration not stated)
→ -7.3%, -16%, -1%
- CC(C)CN1CC2(CCN(C(=O)c3csnn3)CC2)C1
→ -3.5%, -7%, -1%
- N#Cc1ccc(CN2CC[C@@]3(CCCN(C(=O)Oc4ccccc4)C3)C2)cc1
→ 0.2%, 2%, -9%
- COc1cccc(-c2cncnc2NCc2ccccc2)c1
→ 2.8%, 11%, -8%
- COc1ccccc1CN1CCC2(CCNCC2)CC1
→ -1.5%, ?, 16%
- c1cncc(CNc2cc(-c3ccoc3)ncn2)c1
→ -3.9%, 0%, -2%
- COC1CC(OC2CC[C@@]3(C=O)C4CC[C@]5(C)C(C6=CC(=O)OC6)CC[C@@]5(O)C4CC[C@]3(O)C2)OC(C)C1O (some centres not stated)
→ 1.4%, 12%, ?
- COc1ccc2c(c1OC)C(=O)N1c3ccccc3C(=O)OC21 (configuration not stated)
→ 0.4%, -7%, 1%
- O=C(c1ccco1)N1CCC2(CCCN(c3ccccc3)C2)CC1
→ 4.8%, -1%, -20%
- N#CCCn1c(=O)c(-c2cc(F)cc(F)c2)nc2cnc(Nc3ccccc3)nc21
→ 3.5%, 7%, 10%
- CC(C)OC(=O)Nc1cccc(Cl)c1
→ -3.8%, -3%, 42%[activator]
- COCC(=O)N1CCC2(CCN(Cc3ccccc3)CC2)CC1
→ 3.9%, 0%, -17%
- O=C(/C=C/c1ccccc1)c1ccc(O)cc1O
→ -1.3%, 6%, 16%
- CCCCCCCCCCCCCCCCCCOC[C@H](COP(=O)([O-])OCC[N+](C)(C)C)OC(C)=O
→ 4.5%, 9%, -12%[6.7 µM]
- Cc1ccccc1-c1cncnc1NC1CCNCC1
→ 1.3%, 0%, -5%
- CCNc1ncc2ncc(=O)n(Cc3ccc(F)cc3)c2n1
→ ?, -4%, ?
- COc1ncc2nc(C)c(=O)n(C3CC3)c2n1
→ 0.1%, -10%, -13%
- CN(C)c1ncc2nc(-c3cccs3)c(=O)n(C[C@H]3CCCO3)c2n1
→ 2.4%, 0%, 22%
- CN(C)Cc1ccccc1-c1ccc2ncnc(NC3CC3)c2c1
→ -7.4%, -5%, 14%
- N#CCCn1c(=O)cnc2cnc(N3CCOCC3)nc21
→ -9.8%, -10%, -12%
- CN(C)Cc1ccccc1-c1nccc(NCc2cccs2)n1
→ 4.5%, 4%, -17%
- CN(C)C(=O)c1ccc(-c2cc(NCc3cccnc3)ncn2)cc1
→ 0.9%, 0%, -8%
- Cc1cnc(CNc2nc(-c3cccnc3)nc3ccccc23)cn1
→ -2.9%, 1%, 0%
- COc1c(C=O)c(=O)[nH]c2c(OC)cccc12
→ 3.8%, -12%, 0%
- C=C1C2CC[C@@]3(C)C(c4ccoc4)OC(=O)C[C@@]13OC1CC(OC(C)=O)C(C)(C)C(CC(=O)OC)[C@@]12C (some centres not stated)
→ -5.2%, 20%, ?
- COc1ccc(NC(=O)N2CC3(CCN(C(=O)c4csnn4)CC3)C2)cc1
→ 0.6%, 2%, 3%
- Cn1cccc1C(=O)N1CCC2(CCCN(c3ccncc3)C2)CC1
→ 0.7%, -7%, -6%
- CCNc1ncc2nc(-c3cc(F)cc(F)c3)c(=O)n(-c3ccc(OC)cc3)c2n1
→ 2.8%, -7%, -2%
- COc1cccc(-c2cncnc2NCc2cccnc2)c1
→ 3.3%, 3%, 2%
- CN(Cc1ccco1)c1cc(-c2ccoc2)ncn1
→ -1.5%, 2%, -26%
- Cc1cc(O)c(C)c(O)c1C(=O)O
→ 7.4%, 2%, 0%

New compounds follow.
Under each structure – Cruzain inh Det, Cruzain inh noDet, StopGo reporter
- Cc1cnc(CNc2ncncc2-c2ccccc2C#N)cn1
→ 5.4%, 6%, -3%
- NC(=O)c1cc[n+](CC2=C(C(=O)O)N3C(=O)C(NC(=O)C(c4ccccc4)S(=O)(=O)[O-])C3SC2)cc1 (configuration not stated)
→ 3.4%, 2%, -6%
- CCC(C)c1ccc(O[C@@H]2O[C@H](CO)[C@@H](O)[C@H](O)[C@H]2NC(C)=O)cc1 (some centres not stated)
→ -0.7%, 5%, -8%
- COCCNc1ncncc1-c1ccccc1OC
→ 2.5%, -3%, 0%
- CC(=O)c1cc2c(cc1O)OC(C)(C)C=C2
→ -3.7%, 1%, 25%
- COc1ccc(Oc2ncc3nc(CCc4ccccc4)c(=O)n(C[C@H]4CCCO4)c3n2)cc1
→ -4.2%, 2%, -29%
- COc1ccc(NC(=O)N2CCCC3(CCN(C(=O)c4cc(C(F)(F)F)cc(C(F)(F)F)c4)CC3)C2)cc1
→ -5.8%, ?, -9%
- COc1c2c(cc3c1C(c1c(O)c4ccccc4oc1=O)N(C)CC3)OCO2 (configuration not stated)
→ -3.1%, -3%, 2%
- COc1ccc(Oc2ncc3nc(-c4ccc(F)cc4)c(=O)n(Cc4cccs4)c3n2)cc1
→ 4.7%, -7%, -4%
- CN1CCC2(CC1)CCN(S(=O)(=O)c1ccccc1)CC2
→ 0.4%, 5%, -5%
- C[C@@H]1/C(=N/O)CC2C[C@@H]1C2(C)C
→ 3.2%, 7%, -6%
- CC(C)NC(=O)N1CC[C@@]2(CCCN(S(C)(=O)=O)C2)C1
→ 0.3%, -1%, -10%
- CC(=O)NCCNc1ncnc2ccc(-c3ccc(C(=O)N(C)C)cc3)cc12
→ -0.6%, 0%, -7%
- CC1(C)C(=O)C=C[C@@]2(C)C1C=C[C@@]1(C)C2CC[C@@]2(C)C(c3ccoc3)OC(=O)C3OC312 (some centres not stated)
→ -2.3%, -11%, ?
- Oc1ccc2c3c1O[C@H]1c4[nH]c5ccccc5c4C[C@]4(O)[C@H](C2)N(CC2CC2)CC[C@@]314
→ 0.1%, 1%, -14%
- COc1ccc(-c2nc3cnc(N4CCNCC4)nc3n(C)c2=O)cc1
→ -1.4%, 0%, 31%[activator]
- COC(=O)C1OC(=O)C2OC23[C@]2(C)C(O)CC4C(C)(C)C(OC(C)=O)CC(OC(C)=O)[C@@]4(C)C2CC[C@@]13C (some centres not stated)
→ 4.8%&0.5%, ?, -9%&-15%
- COc1cccc(Nc2ncc3ncc(=O)n(CCc4ccccc4)c3n2)c1
→ -3.4%, -23%, -3%
- CCNc1ncc2nc(-c3ccccc3)c(=O)n(CCc3ccccc3)c2n1
→ 2.8%, -8%, 12%
- Cc1cnc(CNc2cc(-c3ccc(C(=O)N(C)C)cc3)ncn2)cn1
→ -2.4%, 1%, 5%
- CC(C)NC(=O)N1CC[C@@]2(CCCN(S(=O)(=O)c3ccccc3)C2)C1
→ 0.7%, 5%, -3%
- c1cc(CN2CCC3(CCNCC3)CC2)ccn1
→ 3.4%, -4%, -15%
- COc1cccc(Nc2ncc3ncc(=O)n(C[C@H]4CCCO4)c3n2)c1
→ -5.0%, -8%, 0%
- c1nc(NCCN2CCOCC2)c2cc(-c3ccoc3)ccc2n1
→ -2.6%, -3%, 2%
- COCCn1c(=O)c(CCc2ccccc2)nc2cnc(N3CCOCC3)nc21
→ 2.1%, ?, -3%
- COCC(=O)N1CCC2(CC1)CN(c1cccc(-c3ccccc3)c1)C2
→ -1.9%, ?, -15%
- CC[C@]1(O)C[C@@H]2CN(CCc3c([nH]c4ccccc34)[C@](C(=O)OC)(c3cc4c(cc3OC)N(C)[C@H]3[C@](O)(C(=O)OC)[C@@H](C(=O)OC)[C@@]5(CC)C=CCN6CC[C@@]43[C@@H]65)C2)C1
→ -0.6%, -3%, 0%
- COc1cccc(-c2ccc3ncnc(NCc4ccccc4)c3c2)c1
→ -5.6%, -6%, ?
- CN(C)c1ccnc(-c2ccccc2C(F)(F)F)n1
→ -2.0%, -3%, -2%
- CC(C)CN1CCCC2(CCN(C(=O)c3cccc(F)c3)CC2)C1
→ 3.6%, 5%, -14%

Reprinted at random: 7 entries already listed
Under each structure – Cruzain inh Det, Cruzain inh noDet, StopGo reporter
- COc1ccc(NC(=O)N2CCCC3(CCN(C(=O)c4cc(C(F)(F)F)cc(C(F)(F)F)c4)CC3)C2)cc1
→ -5.8%, ?, -9%
- COc1ccc(-c2nc3cnc(N4CCNCC4)nc3n(C)c2=O)cc1
→ -1.4%, 0%, 31%[activator]
- COCCNc1ncncc1-c1ccccc1OC
→ 2.5%, -3%, 0%
- COc1ccc(Oc2ncc3nc(-c4ccc(F)cc4)c(=O)n(Cc4cccs4)c3n2)cc1
→ 4.7%, -7%, -4%
- COc1cccc(Nc2ncc3ncc(=O)n(CCc4ccccc4)c3n2)c1
→ -3.4%, -23%, -3%
- CC(C)CN1CCCC2(CCN(C(=O)c3cccc(F)c3)CC2)C1
→ 3.6%, 5%, -14%
- CC1(C)C(=O)C=C[C@@]2(C)C1C=C[C@@]1(C)C2CC[C@@]2(C)C(c3ccoc3)OC(=O)C3OC312 (some centres not stated)
→ -2.3%, -11%, ?

Part of the list above with just Cruzain inh Det:
mol | Cruzain inh Det
CCC(C)c1ccc(O[C@@H]2O[C@H](CO)[C@@H](O)[C@H](O)[C@H]2NC(C)=O)cc1 (some centres not stated) | -0.7%
CC(=O)NCCNc1ncnc2ccc(-c3ccc(C(=O)N(C)C)cc3)cc12 | -0.6%
COc1c2c(cc3c1C(c1c(O)c4ccccc4oc1=O)N(C)CC3)OCO2 (configuration not stated) | -3.1%

High-throughput results (PubChem)
